Rango complex inh = Rango-importin beta binding inhibition; Rango CFP/YFP FRET sensor + importin beta, 45 min; Potency, µM (highest dose often 92.2 µM), for the others: at the top dose inhibition of complex formation; hit rate 0.031% among 340,000; AID 540263; active = rising FRET ratio curve, often small or poorly fitted; inconclusive = mostly compound fluorescence or quenching in the first reads; inactive = flat curves in all reads;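 also: potency is read from the fitted curve at half-maximal effect; 0% = DMSO wells and 100% = buffer wells lacking importin beta; nearly all actives have a fitted effect of over 15% in size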
Target sequence (Q14974 whole entry, looked up): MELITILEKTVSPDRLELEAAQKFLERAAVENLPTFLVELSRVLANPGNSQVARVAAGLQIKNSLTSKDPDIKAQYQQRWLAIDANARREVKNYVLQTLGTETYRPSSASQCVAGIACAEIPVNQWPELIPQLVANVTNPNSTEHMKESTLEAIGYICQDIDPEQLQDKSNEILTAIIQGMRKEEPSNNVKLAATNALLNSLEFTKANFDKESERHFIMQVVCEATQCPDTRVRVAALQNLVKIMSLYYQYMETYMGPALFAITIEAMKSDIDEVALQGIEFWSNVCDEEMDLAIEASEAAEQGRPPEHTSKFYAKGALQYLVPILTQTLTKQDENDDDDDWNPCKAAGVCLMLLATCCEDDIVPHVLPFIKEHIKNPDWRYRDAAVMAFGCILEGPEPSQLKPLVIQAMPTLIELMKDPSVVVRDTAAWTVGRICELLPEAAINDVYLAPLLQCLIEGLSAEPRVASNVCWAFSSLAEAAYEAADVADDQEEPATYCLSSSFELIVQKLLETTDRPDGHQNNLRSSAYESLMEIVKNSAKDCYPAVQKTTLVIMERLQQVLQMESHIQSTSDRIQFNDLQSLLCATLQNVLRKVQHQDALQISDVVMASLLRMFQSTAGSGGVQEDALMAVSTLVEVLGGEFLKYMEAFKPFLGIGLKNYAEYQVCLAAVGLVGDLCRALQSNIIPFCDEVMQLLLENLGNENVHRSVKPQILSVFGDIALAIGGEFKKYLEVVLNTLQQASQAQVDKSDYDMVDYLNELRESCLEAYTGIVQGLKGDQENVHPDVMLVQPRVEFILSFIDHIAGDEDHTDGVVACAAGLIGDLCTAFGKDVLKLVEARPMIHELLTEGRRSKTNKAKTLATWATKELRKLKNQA
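FRET biosensor (snurportin 1 IBB flanked by EYFP and cerulean), 50 nM, with compound 5 min, then 0.125 microM importin beta in PBS, 1 mM DTT, 0.02% Tween-20, 0.1% BSA. CFP/YFP ratio read after 45 min at room temperature; pre-read flags interference.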
Rango release inh = inhibition of RanGTP-driven Rango-importin beta dissociation. Biochemical FRET Rango-importin beta, RanGTP-induced dissociation. Potency, µM (titrated, usually from 46.1 µM), for the others: at the highest dose activity change, negative = inhibition. hit rate 0.071% among 340,000. AID 540253; active means falling FRET ratio curve, often poorly fitted, with flat reads before Ran was added; inconclusive means other falling curves, or compound fluorescence or quenching; inactive means flat or rising ratio curve;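 also: potency is read from the fitted curve at half-maximal effect; % of control where 0% means no effect; nearly all actives have a fitted effect of over 45% in size; -100% = wells without RanGTP and RCC1; the record marks most hits as doubtful in a second field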
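Rango (0.1 uM)–importin beta (0.25 uM) complex; RanGTP-RCC1 trigger; 45 min RT; CFP/YFP FRET read.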
miR-21 FLuc = raises the signal of a miR-21 reporter | HeLa miR-21 FLuc reporter, luciferase, 48 h | Potency, µM (titrated, usually from 38.3 µM), without a hit: at the highest dose reporter change, positive = more light | 340,000 tested, under 10 active | AID 2288; active = well fitted rising curve with a large enough effect; inconclusive = small, poorly fitted or top-dose-only effect; inactive = no such curve, though single readings can be large or run the other way;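 also: % of control where 0% means no effect; miR-21 action dims this reporter so a rising signal means less miR-21 action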
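HeLa cells endogenously expressing miR-21, stably carrying CMV-driven firefly luciferase with a downstream miR-21 binding site, 2000 cells/well. Titrations up to approximately 40 uM, 48 hours; luciferase luminescence read.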
GLA inh pH 4.5 = alpha-galactosidase A (human) inhibition, pH 4.5; purified enzyme, 4-MU-alpha-Gal fluorescence, pH 4.5; activity change, negative = inhibition, % at 105 µM; 230,000 tested, under 10 active; inconclusive = small, poorly fitted or top-dose-only inhibition, or a rising curve; inactive = flat fitted curve, though single readings scatter; no compound was filed as active;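 also: 0% = full activity with enzyme and -100% = basal without enzyme; dose as in the result columns while the protocol names 77 µM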
Numbers without * were called inactive; [ ] = remark or other dose. Some of the compounds tested, so the mix of outcomes need not match the whole.

How did COc1ccc(CCNCC(O)COc2ccc(Cl)cc2)cc1OC (stereo not drawn) do in these assays?
Rango complex inh: 7.7%; Rango release inh: -5%; miR-21 FLuc: -10%

How did COCC(=O)Nc1nc2n(n1)C(c1ccccc1Cl)CC(c1ccc(OC)cc1)N2 (stereo not drawn) do in these assays?
Rango complex inh: inconclusive; Rango release inh: inconclusive; miR-21 FLuc: -2%; GLA inh pH 4.5: 3

How did C=CCn1c(C)cc(-c2csc(NC(=O)C3=COCCO3)n2)c1C do in these assays?
Rango complex inh: inconclusive; Rango release inh: 13%

What do the screens show for `O=C(/C=C/c1ccco1)c1ccc(NC(=O)C23CC4CC(CC(C4)C2)C3)cc1`?
Rango complex inh: -4.1%; Rango release inh: -10%; miR-21 FLuc: -14%; GLA inh pH 4.5: -2

Results for CCN(CC(=O)Nc1ccc2c(c1)OCCO2)C(=O)/C=C/c1ccc(OC)cc1OC ?
Rango complex inh: 0.1%; Rango release inh: 3%; miR-21 FLuc: -38%

How did Cc1ccc2c(c1)c1ncn(Cc3ccc(F)cc3)c(=O)c1n2C do in these assays?
Rango complex inh: -0.2%; Rango release inh: 2%; miR-21 FLuc: 2%; GLA inh pH 4.5: 3

How did COc1ccc(NC(=O)C(C)Oc2ccc(/C(C)=N\O)cc2)cc1 (stereo not drawn) do in these assays?
Rango complex inh: -2.4%; Rango release inh: inconclusive; miR-21 FLuc: 0%; GLA inh pH 4.5: -4

Results for CN1CCN(C(=O)/C(=C/c2ccco2)NC(=O)c2ccccc2)CC1 ?
Rango complex inh: -2.2%; Rango release inh: -1%; miR-21 FLuc: -1%

What do the screens show for `Cc1cc(C(=O)Nc2c(C)nn(Cc3c(Cl)cccc3Cl)c2C)no1`?
Rango complex inh: -0.7%; Rango release inh: 7%; miR-21 FLuc: 12%; GLA inh pH 4.5: 7

How did O=C(CCCCn1c(=O)c2ccccc2n(Cc2ccccc2)c1=O)NC1CCN(Cc2ccccc2)CC1 do in these assays?
Rango complex inh: 0.3%; Rango release inh: -9%; miR-21 FLuc: -2%; GLA inh pH 4.5: -3[21.1 µM]

How did O=C(C1CCN(S(=O)(=O)c2cccc3cccnc23)CC1)N1CCN(c2ccccn2)CC1 do in these assays?
Rango complex inh: 3.3%; Rango release inh: 16%; miR-21 FLuc: 3%; GLA inh pH 4.5: 12

What do the screens show for `Cn1cnnc1SCC(=O)NC1CCCc2ccccc21` (stereo not drawn)?
Rango complex inh: -1.7%; Rango release inh: 28%; miR-21 FLuc: -2%; GLA inh pH 4.5: -5

How did COc1cc(C(=O)Nc2ccc3c(c2)OCCO3)ccc1-n1cnnn1 do in these assays?
Rango complex inh: -0.1%; Rango release inh: -8%; miR-21 FLuc: -12%; GLA inh pH 4.5: 2

Results for O=C(NCC1CCN(Cc2ccccc2F)CC1)Nc1cccc(Br)c1 ?
Rango complex inh: -1.0%; Rango release inh: 1%; miR-21 FLuc: 26%

What do the screens show for `COC(=O)c1c(-c2ccccc2)csc1NC1=NS(=O)(=O)c2ccccc21`?
Rango complex inh: 0.2%; Rango release inh: -8%; miR-21 FLuc: -55%; GLA inh pH 4.5: -1

What do the screens show for `CCCn1ccnc1SC(C)C(=O)Nc1c(C)n(C)n(-c2ccccc2)c1=O` (stereo not drawn)?
Rango complex inh: -0.5%; Rango release inh: 2%

How did CCOC(=O)c1c(NC(=O)C(=O)N/N=C/c2ccccc2OC)sc2c1CCCCC2 do in these assays?
Rango complex inh: -0.3%; Rango release inh: 0%; miR-21 FLuc: -2%; GLA inh pH 4.5: 7

How did CCOc1ccc(CCNC(=O)COc2cc(=O)n(C)c3ccccc23)cc1OCC do in these assays?
Rango complex inh: 0.4%; Rango release inh: -18%; miR-21 FLuc: -8%; GLA inh pH 4.5: 3

How did C=CCN(CC=C)C(=S)NC(=O)c1ccc(OC)cc1 do in these assays?
Rango complex inh: -1.5%; Rango release inh: -4%; miR-21 FLuc: -16%; GLA inh pH 4.5: -2

Results for COc1ccccc1OCCCCN1CCN(c2ccccc2OC)CC1 ?
Rango complex inh: 2.5%; Rango release inh: -1%; miR-21 FLuc: 1%; GLA inh pH 4.5: 10

What do the screens show for `COc1ccc(OC)c(S(=O)(=O)CC(O)COc2ccccc2Cl)c1` (stereo not drawn)?
Rango complex inh: 0.0%; Rango release inh: 7%; miR-21 FLuc: -9%

What do the screens show for `O=C(Nc1nnc(C2CC2)s1)C1Cc2ccccc2CN1S(=O)(=O)c1ccccc1F` (stereo not drawn)?
Rango complex inh: 0.1%; Rango release inh: -15%; miR-21 FLuc: -31%; GLA inh pH 4.5: 9

Results for CCOC(=O)COc1cccc2c(=O)n(CC(=O)NCc3ccc4c(c3)OCO4)ccc12 ?
Rango complex inh: -1.9%; Rango release inh: 2%; miR-21 FLuc: 0%; GLA inh pH 4.5: -7

What do the screens show for `CCOc1ccc(NC(=O)CSc2ccc3nnc(-c4ccccn4)n3n2)cc1`?
Rango complex inh: -4.8%; Rango release inh: 0%; miR-21 FLuc: 0%

How did Cc1ccc(-n2nnnc2SCC(=O)NNC(=O)c2ccco2)cc1C do in these assays?
Rango complex inh: 6.4%; Rango release inh: 11%; miR-21 FLuc: -7%; GLA inh pH 4.5: 3

How did Cc1ccc(Nc2ccc3nonc3c2[N+](=O)[O-])cc1 do in these assays?
Rango complex inh: -1.9%; Rango release inh: 11%; miR-21 FLuc: -2%; GLA inh pH 4.5: -1

What do the screens show for `CNC(=O)Cc1csc2ccc(Cl)cc12`?
Rango complex inh: 0.2%; Rango release inh: 5%; miR-21 FLuc: -13%; GLA inh pH 4.5: 7

Results for N#Cc1ccc(/C=N/N=C(N)N)cc1 ?
Rango complex inh: 0.9%; Rango release inh: 3%; miR-21 FLuc: -2%; GLA inh pH 4.5: -7

Results for N#C[C@H]1C2OC2c2ccccc2N1C(=O)c1ccccc1 (stereo partly drawn) ?
Rango complex inh: inconclusive; Rango release inh: inconclusive

How did O=C(/C=C/c1ccccc1)n1cnnc1SC/C=C/c1ccccc1 do in these assays?
Rango complex inh: -1.4%; Rango release inh: 10%; miR-21 FLuc: -20%; GLA inh pH 4.5: -3

Results for Nn1c(SCC(=O)Nc2cccnc2Cl)nnc1-c1ccccc1 ?
Rango complex inh: -3.3%; Rango release inh: 1%

What do the screens show for `Oc1cccc(/C=N/N2CCCCC2)c1O`?
Rango complex inh: -3.1%; Rango release inh: -2%; miR-21 FLuc: -28%

Results for CC1(C)CC(=O)c2cc(OCC(=O)O)ccc2O1 ?
Rango complex inh: -0.9%; Rango release inh: -13%; miR-21 FLuc: -4%; GLA inh pH 4.5: 15

Results for CCOc1ccccc1NC(=O)c1cc(S(=O)(=O)N2CCOCC2)ccc1C ?
Rango complex inh: 1.2%; Rango release inh: 0%; miR-21 FLuc: 9%

What do the screens show for `CCc1noc(C)c1C(=O)NNC(=O)c1ccccc1Cl`?
Rango complex inh: -5.2%; Rango release inh: -2%

What do the screens show for `O=c1[nH]c(-c2ccccc2)c(-c2ccccc2)nc1[N+](=O)[O-]`?
Rango complex inh: 4.4%; Rango release inh: -10%; miR-21 FLuc: 3%

Results for CCOC(=O)CSc1snnc1-c1ccccc1 ?
Rango complex inh: 0.4%; Rango release inh: 13%; miR-21 FLuc: 0%; GLA inh pH 4.5: 0

How did CCOC(=O)N1CCN(C(=O)CSc2nc3c([nH]c4ccccc43)c(=O)n2CCOC)CC1 do in these assays?
Rango complex inh: 0.3%; Rango release inh: -5%; miR-21 FLuc: 10%

How did O=C(CCNS(=O)(=O)c1ccccc1C(F)(F)F)N1CCCCCCC1 do in these assays?
Rango complex inh: -0.3%; Rango release inh: 13%

What do the screens show for `COC(=O)c1ccc(Cn2nnc3c(=O)[nH]c(C4CCN(S(=O)(=O)c5cc(C)ccc5C)CC4)nc32)cc1`?
Rango complex inh: -0.3%; Rango release inh: 7%; miR-21 FLuc: 1%

Quoted at random: six entries already listed.
What do the screens show for `CCOc1ccc(NC(=O)CSc2ccc3nnc(-c4ccccn4)n3n2)cc1`?
Rango complex inh: -4.8%; Rango release inh: 0%; miR-21 FLuc: 0%

Results for Nn1c(SCC(=O)Nc2cccnc2Cl)nnc1-c1ccccc1 ?
Rango complex inh: -3.3%; Rango release inh: 1%

How did O=C(CCNS(=O)(=O)c1ccccc1C(F)(F)F)N1CCCCCCC1 do in these assays?
Rango complex inh: -0.3%; Rango release inh: 13%

What do the screens show for `O=C(Nc1nnc(C2CC2)s1)C1Cc2ccccc2CN1S(=O)(=O)c1ccccc1F` (stereo not drawn)?
Rango complex inh: 0.1%; Rango release inh: -15%; miR-21 FLuc: -31%; GLA inh pH 4.5: 9

Results for CCOC(=O)COc1cccc2c(=O)n(CC(=O)NCc3ccc4c(c3)OCO4)ccc12 ?
Rango complex inh: -1.9%; Rango release inh: 2%; miR-21 FLuc: 0%; GLA inh pH 4.5: -7

What do the screens show for `CCc1noc(C)c1C(=O)NNC(=O)c1ccccc1Cl`?
Rango complex inh: -5.2%; Rango release inh: -2%

(list continues)
How did CCOc1ccc(CSC(=N)N)cc1[N+](=O)[O-] do in these assays?
Rango complex inh: 0.6%; Rango release inh: -13%; miR-21 FLuc: 21%; GLA inh pH 4.5: -4

Results for CCc1cccc(NC(=O)CCc2nc3sc4c(c3c(=O)[nH]2)CCCC4)c1 ?
Rango complex inh: inconclusive; Rango release inh: 4%

Results for CCOc1ccc2nc(N3CCCC(C(=O)NCCCN4CCOCC4)C3)sc2c1 (stereo not drawn) ?
Rango complex inh: -4.2%; Rango release inh: 20%; miR-21 FLuc: -33%; GLA inh pH 4.5: -6

What do the screens show for `Cc1cc(NC(=O)C2Oc3ccccc3OC2C)no1` (stereo not drawn)?
Rango complex inh: 2.8%; Rango release inh: -1%; miR-21 FLuc: -5%; GLA inh pH 4.5: -1

What do the screens show for `CC(Cc1cccs1)NC(=O)Nc1cccc(Cl)c1` (stereo not drawn)?
Rango complex inh: 0.0%; Rango release inh: 4%; miR-21 FLuc: 8%; GLA inh pH 4.5: -6

Results for COc1ccc(/C=N/N2CCN(C3c4ccccc4-c4ccccc43)CC2)cc1OC ?
Rango complex inh: -1.6%; Rango release inh: -11%; miR-21 FLuc: -4%; GLA inh pH 4.5: 3

How did CCN(CC)C(=O)CN(C#N)c1nc(NC(C)C)nc(NC(C)C)n1 do in these assays?
Rango complex inh: -0.3%; Rango release inh: -3%; miR-21 FLuc: -4%; GLA inh pH 4.5: -2

What do the screens show for `CC(SCC(=O)Nc1ccc(S(=O)(=O)N2CCCCC2)cc1)C(=O)O` (stereo not drawn)?
Rango complex inh: 0.7%; Rango release inh: inconclusive; miR-21 FLuc: -1%; GLA inh pH 4.5: -1

What do the screens show for `OC(CSc1ccccc1Cl)CN1CCN(c2ccccc2F)CC1` (stereo not drawn)?
Rango complex inh: 0.1%; Rango release inh: 9%; miR-21 FLuc: -3%; GLA inh pH 4.5: -4

How did Cc1ccc(Nc2nc(-c3ccc(S(=O)(=O)N4CCOCC4)cc3)cs2)cc1Cl do in these assays?
Rango complex inh: 1.7%; Rango release inh: 14%; miR-21 FLuc: -4%; GLA inh pH 4.5: 3

How did NNC(=O)c1c[nH]c2ccc(OCc3ccccc3)cc12 do in these assays?
Rango complex inh: 2.6%; Rango release inh: -8%

Results for COc1cc(C)c(CNc2cc(C)cc(C)c2)cc1C ?
Rango complex inh: -3.9%; Rango release inh: 13%; miR-21 FLuc: -1%; GLA inh pH 4.5: -5

How did CC(C)CN(C(=O)CN(C)C(=O)Cc1ccc(Cl)cc1)c1c(N)n(CC(C)C)c(=O)[nH]c1=O do in these assays?
Rango complex inh: -3.7%; Rango release inh: -12%

What do the screens show for `Cc1sc(NC(=O)CCl)c(C(=O)c2ccccc2)c1C`?
Rango complex inh: inconclusive; Rango release inh: 2%; miR-21 FLuc: inconclusive; GLA inh pH 4.5: -3

In the list so far, 2 have a COOH group.
Results for CC1(C)CC(=O)c2cc(OCC(=O)O)ccc2O1 ?
Rango complex inh: -0.9%; Rango release inh: -13%; miR-21 FLuc: -4%; GLA inh pH 4.5: 15

What do the screens show for `CC(SCC(=O)Nc1ccc(S(=O)(=O)N2CCCCC2)cc1)C(=O)O` (stereo not drawn)?
Rango complex inh: 0.7%; Rango release inh: inconclusive; miR-21 FLuc: -1%; GLA inh pH 4.5: -1

Compound activity (PubChem)
